rRNA inh HTS: inhibitors of bacterial rRNA selective over humanized ribosomes. actives 1.6% (n = 350,000). AID 720706. E. coli WT GFP vs humanized-ribosome RFP mutants, fluorescence, 24 h; active compounds read low; DMSO median 0, no signal -100. GFP signal change (wild-type ribosome), % (concentration not given with the values);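 active means significant combined selectivity score with lowered wild-type GFP, culture density cut under 30%, mutant RFP and density less affected; inactive means any of these conditions unmet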; further: one replicate is shown; some compounds called inactive have numbers as strong as hits
MLL AF4-AF9 inh: blocks AF4 peptide binding to human AF9. P42568. AlphaScreen, biotin-AF4 peptide binding to FLAG-AF9. inhibition, % at 10 µM. actives 0.47% (n = 350,000);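 active means every replicate reaching a set inhibition limit, whatever the replicate mean, cut at about 25% in these data; inconclusive means mean inhibition reaches that limit but some replicates miss it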;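 further: 0% = plate neutral control median and 100% = total signal loss; the record names both 10 and 1 µM as test concentration; the first replicate is given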
Target sequence (P42568 whole entry, looked up): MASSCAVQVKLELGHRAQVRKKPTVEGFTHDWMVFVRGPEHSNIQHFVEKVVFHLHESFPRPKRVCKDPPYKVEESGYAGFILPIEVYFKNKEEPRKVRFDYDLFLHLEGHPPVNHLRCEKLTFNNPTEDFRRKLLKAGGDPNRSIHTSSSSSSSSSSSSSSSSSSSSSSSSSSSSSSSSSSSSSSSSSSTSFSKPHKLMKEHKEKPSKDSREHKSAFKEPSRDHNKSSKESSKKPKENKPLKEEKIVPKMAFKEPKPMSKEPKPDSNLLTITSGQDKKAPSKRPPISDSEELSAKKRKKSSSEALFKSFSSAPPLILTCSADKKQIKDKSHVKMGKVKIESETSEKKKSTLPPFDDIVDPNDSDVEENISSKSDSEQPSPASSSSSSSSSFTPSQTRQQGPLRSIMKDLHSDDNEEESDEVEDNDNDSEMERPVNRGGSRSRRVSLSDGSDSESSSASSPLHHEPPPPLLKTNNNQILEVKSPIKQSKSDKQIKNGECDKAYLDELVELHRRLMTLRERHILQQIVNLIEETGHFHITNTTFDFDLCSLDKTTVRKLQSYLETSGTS
FGF22 binding: shifts melting point of recombinant human FGF22. calls only at 9.99 µM. recombinant FGF22 thermal shift, SYPRO orange fluorescence; percent of sucrose octasulfate shift, DMSO zero. AID 651658. actives 1.5% (n = 340,000). Q9HCT0;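 active means melting point raised past a set limit in the mean and every replicate; inconclusive means no clear call; three in four hits are not shown here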
Target sequence (Q9HCT0 whole entry, looked up): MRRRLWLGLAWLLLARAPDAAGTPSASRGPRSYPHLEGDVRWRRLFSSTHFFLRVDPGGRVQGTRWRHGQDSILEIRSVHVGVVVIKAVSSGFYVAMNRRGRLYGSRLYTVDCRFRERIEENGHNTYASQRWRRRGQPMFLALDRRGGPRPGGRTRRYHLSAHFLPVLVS
Beta cell apopt: beta cell apoptosis inhibition. INS-1E cytokine-induced death, ATP luminescence, 48 h; percent of positive-control rescue, neutral wells zero. protection from apoptosis, % (concentration not given with the values). actives 0.8% (n = 300,000). AID 435005;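 active means all replicates at 75% or more, or half of them and the mean; inconclusive means half reach 75% but not the mean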;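 further: 0% = cytokine-treated negative control wells and 100% = positive control rescue; higher means more ATP so stronger rescue from cytokine killing; wells of about 40 µL received 100 nL stock; the first replicate is given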
UCH37 inh: blocks the human deubiquitinase UCH37; Q9Y5K5; purified proteasome/UCH37, Ub-AMC cleavage fluorescence; inhibition, % (no concentration beside the values); actives 0.33% (n = 330,000); AID 588478;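 active means mean of two replicates above 20%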;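 further: 0% = compound-free wells with enzyme and 100% = wells lacking proteasome; stock transfer was 100 nL into about 20 µL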
Target sequence (Q9Y5K5 whole entry, looked up): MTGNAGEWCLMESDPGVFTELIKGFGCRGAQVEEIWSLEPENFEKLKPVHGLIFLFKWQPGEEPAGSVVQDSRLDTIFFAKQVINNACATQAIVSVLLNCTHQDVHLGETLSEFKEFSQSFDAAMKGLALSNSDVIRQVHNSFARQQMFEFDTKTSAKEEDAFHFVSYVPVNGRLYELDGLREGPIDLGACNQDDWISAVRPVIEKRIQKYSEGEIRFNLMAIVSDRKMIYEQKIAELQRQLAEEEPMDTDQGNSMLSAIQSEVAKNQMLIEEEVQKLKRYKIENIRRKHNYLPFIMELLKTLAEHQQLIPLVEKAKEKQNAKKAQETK
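Material: Human UCH37 enzyme supplied as purified proteasome complex | Schedule: 30 min compound-proteasome preincubation then 25 min substrate reaction, room temperature | Detection: AMC fluorescence from Ub-AMC cleavage, excitation 355 nm, emission 460 nm | Benchmarks: Wells without proteasome as full block, compound-free enzyme plus substrate as uninhibited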
Bfl-1 A1 inh: inhibitors of the anti-apoptotic protein A1, read as caspase activation; actives 0.066% (n = 330,000); caspase activation, % (no concentration beside the values); MEF A1-2A-BIM cells, Caspase-Glo 3/7 luminescence, 3 h; percent of clofoctol response, vehicle zero;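 active means over half of replicate activation scores above 10%, or exactly half above 10 with the replicate mean above 10; inconclusive means replicate mean below 10 yet half the replicates above 10; inactive means over half of replicates below 10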;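 further: wells of about 30 µL received 50 nL stock; many hits fall short of the cut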
Ecoli growth: E. coli growth inhibition. actives 0.21% (n = 330,000). OD600 absorbance (test concentration not listed). AID 1053175. Escherichia coli growth, OD600, 23 h; active compounds read low;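 active means OD600 absorbance below the run mean of sample wells minus 3.6 SD, in any replicate, cut at about 0.56 in these data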;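 further: stock transfer was 300 nL into about 60 µL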
T cruzi repl: T. cruzi replication inhibition | T. cruzi beta-gal in NIH3T3, luminescence, 90 h | AID 1885 | inhibition, % (no concentration beside the values) | actives 1.4% (n = 300,000);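 active means mean inhibition across valid replicates above about 55%, limit read from the data; inconclusive means mean below that limit but half or more replicates reach it; inactive means mean below it, under half of replicates reach it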;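 further: signal also drops with host cell toxicity which is not excluded here; 0% = plate median of DMSO wells and 100% = zero luminescence signal; higher percent means less beta-gal luminescence so fewer parasites; stock transfer was 50 nL into about 50 µL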
rRNA inh HTS OD600: second read-out of rRNA inh HTS, no call of its own (marks repeat the call); OD600 change, %; measured here: OD600 growth;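 optical density of the mix in the first replicate; 0 = DMSO median and -100 = no signal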
rRNA inh HTS RFP: second read-out of rRNA inh HTS, no call of its own (marks repeat the call); RFP signal change, %; measured here: RFP humanized mutant strains;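 first replicate; 0 = DMSO median and -100 = no signal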
* = called active by the depositor; i = inactive; ? = inconclusive; . = no result given.

SMILES	rRNA inh HTS	rRNA inh HTS OD600	rRNA inh HTS RFP	MLL AF4-AF9 inh	FGF22 binding	Beta cell apopt	UCH37 inh	Bfl-1 A1 inh	Ecoli growth	T cruzi repl
O=C(c1cccc(Br)c1)N1CCCc2ccccc21	-10	-6	-2.6	0.0	i	-8	.	-0.4	.	-9
COc1ccc(C(=O)OCC(=O)Nc2sccc2C(N)=O)cc1[N+](=O)[O-]	-5	-6	0.2	2.1	i	-1	4.5	1.1	0.67	.
Cc1ccc2[nH]c(=O)c(C(c3nnnn3CC3CCCO3)N3CCCc4ccccc43)cc2c1 (stereo not given)	.	.	.	.	.	-3	4.1	-0.3	0.7	20
Cn1c(SCC(=O)NC2CCCC2)nc2cccnc21	.	.	.	.	.	-10	0.7	-0.3	0.68	-4
CC1CCCCC1NC(=O)CCn1ccc2cc(S(=O)(=O)N3CCCC3)ccc21 (stereo not given)	.	.	.	.	.	.	3.9	0.3	0.66	9
Cc1[nH]c2ccccc2c1CCNS(=O)(=O)c1ccc(S(N)(=O)=O)cc1	-3	-3	0.8	5.8	i	0	3.8	-0.1	0.68	-2
Cc1cc(C)cc(N(CC(=O)NC2CCCCC2)C(=O)CCCC(=O)Nc2ccccn2)c1	-4	-8	1.0	-4.6	i	-9	3.8	0.2	0.6	3
Cc1cc(C2=CC(=O)C[C@H](c3ccc4c(c3)OCO4)C2)ccc1F	-13	-11	-13	-0.5	i	-1	-1.2	-0.7	.	.
Cc1ccc(-n2nnnc2SCC(=O)NCCC2=CCCCC2)c(C)c1	.	.	.	.	.	2	0.6	0.0	0.64	24
CC(C)(C)c1cc(C(=O)NNc2cccc(Cl)c2)n(Cc2ccccc2)n1	-26	-49	22	2.5	.	23	2.6	0.5	0.68	50
COc1cc(-c2noc(CCC(=O)NC3CCCCC3)n2)cc(OC)c1OC	4	5	-2.4	0.3	i	-5	6.0	0.5	0.69	-7
COc1ccccc1C(=O)NNC(=O)c1cccc(Br)c1	2	9	-1.4	-0.4	i	0	2.7	-2.4	0.69	-7
Clc1ccccc1OCCN1CCCCC1	11	8	-2.7	-16	i	-1	0.5	0.0	0.68	-7
Cc1c(C#N)c2ncn(CC#N)c(=O)c2n1-c1ccccc1	.	.	.	.	.	-5	0.6	-0.7	0.79	0
CCOC(=O)N1CCN(C2=NC3(CCCCC3)C(C#N)C(=O)N2)CC1 (stereo not given)	.	.	.	.	.	-8	0.4	-0.4	0.69	5
O=C(Nc1ccccc1C(=O)OCn1nnc2ccccc2c1=O)c1ccco1	.	.	.	.	.	3	-1.8	-0.9	0.75	7
O=C(Nc1ccc(OC(F)(F)F)cc1)c1n[nH]c(Cn2cncn2)n1	.	.	.	.	.	-3	3.5	-1.1	0.69	-12
COCC(=O)N1CCC(Oc2ccc(C(=O)NCCCn3cccn3)cc2)CC1	4	11	-1.8	1.4	i	1	3.7	-0.5	0.69	0
Cc1ccc(CNC(=O)COC(=O)c2c(C)noc2C)cc1	.	.	.	.	.	-6	3.6	0.0	0.72	-1
COCCNC(=O)NC12CC3CC(CC(C3)C1)C2	-1	-2	-1.8	1.1	i	3	0.1	0.8	0.69	-16
COc1ccc(Cl)cc1NC(=O)CN(C)C(=O)CCNC(=O)c1ccccc1OC	-3	2	-3.4	0.8	i	0	2.7	0.2	0.72	.
Cc1ccc2c(C)nc(/N=C(\N)NC(=O)N3c4ccccc4Sc4ccccc43)nc2c1	-7	1	36	3.1	i	-1	3.6	-0.1	0.69	.
CCOc1ccc(C(=S)N2CCCC2)cc1OC	.	.	.	1.0	i	-10	1.6	-0.3	0.71	-25
COc1ccc(OC)c(-c2csc(NC(=O)C3CSC4(C)CCC(=O)N34)n2)c1 (stereo not given)	-1	-3	4.7	-1.3	i	.	1.7	-0.5	0.64	-8
Cn1nc(-c2ccccc2)c(CN2CCN(c3ncccn3)CC2)c1Cl	-34*	-27*	-4.8*	-0.3	i	3	3.8	0.3	0.68	11
COc1ccc(Nc2nccc(-c3ccc([N+](=O)[O-])cc3)n2)cc1	8	19	-0.8	0.3	i	-5	3.3	0.3	0.66	-4
Cc1cc(NC(=O)c2c(F)cccc2Cl)n(-c2nc3ccccc3[nH]2)n1	.	.	.	.	.	33	7.7	0.6	0.65	25
CC(=O)NCCn1c(SCC(=O)c2ccc(Cl)cc2)nc2ccccc2c1=O	.	.	.	.	.	6	1.9	0.0	0.74	-14
O=C(CCCOc1ccccc1)Nc1ccc(Cl)cn1	1	-2	0.7	-0.7	i	-6	6.1	0.4	0.68	-16
Cc1ccc(S(=O)(=O)n2cnc3ccccc32)cc1[N+](=O)[O-]	6	6	0.3	-1.6	i	1	.	-0.2	.	-18
O=C1NCCN1C(=O)c1cccc(Cl)c1	.	.	.	.	.	-11	2.0	1.7	0.72	-5
O=C(c1ccc(OC2CCN(CCc3ccccc3)CC2)cc1)N1CCCC(O)C1 (stereo not given)	16	11	2.4	0.8	i	-7	-0.6	0.2	0.62	-17
OCC1(Cc2ccc(Cl)cc2)CCN(Cc2ccc(F)c(F)c2)CC1	-8	-10	-1.9	17	i	-8	2.6	0.5	0.66	32
C=CCOC(=O)C1=C[C@H](C2CCCCC2)C[C@H](OCc2ccc(CO)cc2)O1	5	-1	-6.7	-8.7	i	-4	1.4	-0.8	.	9
Cc1oc2cc3oc(=O)c(CCC(=O)NCc4ccccn4)c(C)c3cc2c1C	.	.	.	-1.7	i	-4	-54	-1.0	0.68	6
CC(=O)N(CCCCN1C(=O)c2ccccc2C1=O)c1ccc(C)cc1	.	.	.	.	.	4	1.7	?	0.71	13
CCc1cc(=O)oc2cc(C)cc(OCC(=O)C(C)(C)C)c12	-17	-24	-4.2	-1.4	i	-1	-16	0.2	0.69	12
Cc1ccc(S(=O)(=O)NNC(=O)Nc2cccc(F)c2)c(C)c1	3	8	2.2	-1.6	i	0	2.2	0.0	0.64	-3
O=C(CCN1CCOCC1)N1CCCC(Nc2ccc(F)cc2)C1 (stereo not given)	14	8	-1.6	-0.9	i	2	1.9	0.2	0.71	-4
CCOc1ccc(CCNC(=O)CS(=O)Cc2nc(-c3ccccc3C)oc2C)cc1OCC (stereo not given)	4	4	2.9	0.1	i	1	0.5	0.7	0.7	2

Looked up above.
For Ecoli growth, `O=C(CCCOc1ccccc1)Nc1ccc(Cl)cn1` has 0.68
For UCH37 inh, `Cc1cc(NC(=O)c2c(F)cccc2Cl)n(-c2nc3ccccc3[nH]2)n1` has 7.7

Continuation.
SMILES	rRNA inh HTS	rRNA inh HTS OD600	rRNA inh HTS RFP	MLL AF4-AF9 inh	FGF22 binding	Beta cell apopt	UCH37 inh	Bfl-1 A1 inh	Ecoli growth	T cruzi repl
CCNC(=O)NC(=O)C(C)OC(=O)CCCc1nc2ccccc2s1 (stereo not given)	-6	4	2.8	0.2	i	-2	0.3	-0.2	0.67	-4
COc1cc(O)cc(O)c1C(=O)/C=C/c1ccccc1	.	.	.	-6.0	i	1	7.5	0.0	0.71	-79
COc1ccc(Cc2nnc(NC(=O)C(C)C)s2)cc1	.	.	.	-0.4	i	-2	2.2	-0.5	0.65	-7
CCCCn1c(N)c(N(CCOC)C(=O)COc2ccc(C(C)=O)cc2)c(=O)[nH]c1=O	15	10	-1.2	-0.4	i	-18	1.2	0.1	0.64	-11
CC(NC(=O)Nc1nnc(C(F)(F)F)s1)(C(F)(F)F)C(F)(F)F	.	.	.	.	.	120*	1.3	0.2	0.59	45
CN(Cc1ccccc1)C(=O)c1ccc(NC(=O)Cc2ccc(NC(=O)C3CCN(S(=O)(=O)c4cccc([N+](=O)[O-])c4)CC3)cc2)cc1	6	13	-0.6	0.6	i	.	5.3	.	0.7	.
Cc1cc(C)cc(N(CC(=O)Nc2ccc(C(F)(F)F)cc2)S(=O)(=O)c2c(C)[nH]c(=O)[nH]c2=O)c1	1	3	-1.0	2.2	i	.	2.1	.	0.71	-3
O=C(CSc1nnc(-c2ccncc2)n1Cc1ccccc1)NCCc1ccccc1	.	.	.	.	.	4	-0.5	-0.4	0.72	16
O=C(Nc1cccc2c1C(=O)NC2=O)c1ccc(N2C(=O)CCC2=O)cc1	9	12	-0.5	-1.2	i	0	-73	0.1	0.66	-14
c1ccc(C2Nc3ccccc3C3OCCCC23)cc1 (stereo not given)	-7	-13	-1.7	-6.3	i	-3	2.1	0.2	0.65	-9
Cc1ccc(S(=O)(=O)C2C(=O)NC3(C)CC2c2ccccc2O3)cc1 (stereo not given)	-6	-3	-5.9	-2.1	i	2	5.9	0.4	0.7	-8
CCOc1ccc(S(=O)(=O)Nc2nc3cc(OC)ccc3s2)cc1	6	6	-5.0	-9.9	i	-1	1.6	-1.0	0.79	-7
CCCn1c(SCc2nc(N)nc(N3CCCCC3)n2)nc2c1c(=O)n(C)c(=O)n2C	-9	-8	-2.7	-3.8	i	-5	0.6	-1.0	0.73	-1
O=C(Cc1ccc(Cl)cc1)OCC(=O)N1CCCCCC1	.	.	.	-1.6	i	3	2.0	-1.3	0.66	.
Cc1c(CN(C)C(=O)CSc2nc(-c3ccco3)cc(C(F)(F)F)n2)cnn1C	.	.	.	.	.	-1	6.0	-0.4	0.7	10
Cc1ccc(-n2cc(CNCC3CC(=O)N(C4CC4)C3)c(-c3cccc(C)c3)n2)cc1 (stereo not given)	-16	-16	14	5.9	i	0	2.6	0.6	0.68	-6
COc1ccccc1OCCn1cc(C#N)c2ccccc21	.	.	.	.	.	4	-2.9	0.1	0.77	-11
O=C(CCCO)N/N=C/c1cc(Br)ccc1O	-16*	12*	1.8*	-1.7	i	3	.	0.4	.	-26
Cc1[nH]ccc(=O)c1OCC(=O)O	16	7	0.9	.	i	-1	1.5	0.4	0.64	-5
O=C(Nc1ccc(N2CCOCC2)cc1)Nc1ccc2nc(-c3ccco3)c(-c3ccco3)nc2c1	.	.	.	.	.	3	3.6	-1.5	0.67	39
COc1ccc([N+](=O)[O-])c(S(=O)(=O)c2ccccc2)n1	3	-1	11	-1.9	i	94*	6.4	2.1	0.67	20
Cc1ccc(OCC(=O)c2cc(C)n(C)c2C)c([N+](=O)[O-])n1	.	.	.	7.6	i	-3	4.5	-0.6	0.68	-2
O=S(=O)(c1cccc2cccnc12)N1CCOCC1	.	.	.	.	.	5	2.9	-0.4	0.69	.
CCn1nccc1C(=O)NC1=C(C#N)CCC1	.	.	.	.	.	-7	5.0	0.0	0.7	-21
COCCOC(=O)C1=C(N)OC2=C(C(=O)CC(C)(C)C2)C1c1ccncc1 (stereo not given)	10	1	-1.0	-0.7	i	-5	0.7	0.0	0.7	6
CC(C)c1ccc(S(=O)(=O)N2CCN(C(=O)C3CCCCC3)CC2)cc1	8	1	1.6	-1.0	i	0	3.5	-0.2	0.71	-2
Cc1nn2c(-c3ccc(S(=O)(=O)N4CCN(CCO)CC4)o3)nnc2c2ccccc12	2	5	-2.6	0.5	i	15	-5.9	-0.8	0.67	-1

These rows are one share of the data; rates above refer to the full screens.
